From PubChem
Sa ugtP lethal: compounds lethal to S. aureus RN4220 ugtP deletion mutant; AID 1259309; 330,000 tested, 0.54% active; growth inhibition, % (concentration not given with the values); OD600 growth, 16 h; some inactives read as strong as hits;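 active = z-score under -3 and OD600 up to 0.15 on both plates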;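 note: plate controls were untreated wells for no effect and antibiotic for full effect; wells of about 80 µL received 100 nL stock; the first replicate is given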
RN4220 kill: kills Staphylococcus aureus RN4220 | S. aureus RN4220 growth, OD600, 16 h | inhibition, % (test concentration not listed) | 330,000 tested, 0.33% active | AID 1259311;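 active = z-score of -3 or lower and OD600 up to 0.18 on both plates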;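 note: plate controls were untreated cells for no effect and reference antibiotic for full effect; stock transfer was 100 nL into about 80 µL; one replicate is shown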
Bead autofluor: counter-screen for toxin protease inhibitors: compound fluorescence | compound autofluorescence counterscreen, microsphere flow cytometry; hits give high values | fluorescence intensity (no concentration beside the values) | 360,000 tested, 3.1% active | AID 624483;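 active = at least 3 SD above the mean of all compounds, about 16000 in these data; inconclusive = too few beads counted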;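 note: 100 nL of 1 mM stock went into each well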
BJeLR lethal: kills HRASV12-expressing BJeLR cells. BJeLR (HRASV12) viability, CellTiter-Glo ATP luminescence, 48 h; reference of the scale not given here. inhibition, % (no concentration beside the values). 300,000 tested, 0.17% active;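 active = replicate mean above 50%; inconclusive = above 50% but judged a plate artefact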;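 note: 50 nL library stock added to about 25 µL; numbers are from one replicate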
PrP 5UTR inh: inhibition of PrP 5' UTR reporter expression; cell-based PrP 5' UTR mRNA reporter, plate reader; inhibition, % (test concentration not listed); 340,000 tested, 0.35% active;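 active = every replicate at 50% or more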;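 note: 0 = median of the neutral control wells; tested in H4 reporter cells; numbers are from one replicate; inactives centre near -14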
Mtb hypoxia rep: reduces hypoxia-regulated biosensor signal in M. tuberculosis; M. tuberculosis hypoxia-regulated fluorescent reporter, fluorescence; fluorescence inhibition, % (test concentration not listed); 300,000 tested, 0.1% active; AID 1159583;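 active = 35 to 45% if threefold the growth effect, above 45% if 1.5-fold the growth effect; inactive = the rest, general growth blockers included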;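 note: wells of about 50 µL received 100 nL stock; 0% = vehicle wells and 100% = reference inhibitor wells; whole bacteria with a GFP reporter of the hypoxia response; strong numbers were not always called active; many hits fall short of the cut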
Mtb hypoxia rep growth: further read-out of Mtb hypoxia rep, marked with its call; growth inhibition, %; measured here: M. tuberculosis growth (absorbance);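 0% = vehicle and 100% = reference antibiotic; read after six days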
* hit, by the source's call; ? = inconclusive; · = not tested or not shown; & = joins results of further samples. Rows were taken by chance (roughly 4% active in at least one column).

SMILES	Sa ugtP lethal	RN4220 kill	Bead autofluor	BJeLR lethal	PrP 5UTR inh	Mtb hypoxia rep	Mtb hypoxia rep growth
Cc1ccc(CSc2nc3ccccc3c(=O)n2CCCC(=O)NCc2ccco2)cc1	2	-3.1	4158	1	-25	2	1
CN(CCc1ccccn1)C(=O)CCC1CCCN(C(=O)c2ccccn2)C1 (configuration not stated)	2	11	3241	4	-16	3	2
O=C(CSc1ccc(C(F)(F)F)cc1[N+](=O)[O-])Nc1ccccc1	-2	0.0	4955	-2	-17	3	11
CCCCn1c(N)c(N(CC(C)C)C(=O)c2cc3c(s2)CCCCC3)c(=O)[nH]c1=O	3	3.0	5215	-16	-12	6	-1
O=C(Oc1ccccc1C(=O)Nc1ccccc1)c1ccccc1Br	-4	5.5	1973	9	-29	8	3
CCC1CCCCN1C(=O)CCc1nnc(Cc2cc(OC)ccc2OC)o1 (configuration not stated)	5	4.0	5864	-5	-37	15	3
CCCc1nc2sc3ccccc3c(=O)c2c(=O)n1CCOC	1	-0.3	·	-10	·	-9	-12
COCCC(=O)N1CCC(Oc2ccc(C(=O)N3CCCC(COC)C3)cc2)CC1 (configuration not stated)	1	4.3	5161	0	-14	8	1
CCO[C@H]1OC(C(=O)N2CCOCC2)=C[C@@H](c2cn(C(C)=O)c3ccccc23)[C@@H]1CCCO	·	·	3700	0	8	·	·
O=C(CSc1ccc2ccccc2n1)N/N=C/c1ccc(O)cc1	·	·	3913	-9	-10	·	·
Cc1cc2cc(CN(CCCN3CCOCC3)C(=O)NC3CCCCC3)c(=O)[nH]c2cc1C	8	5.9	23619*	-1	-12	5	6
Cc1cc(C)n(-c2nc3c(c(=O)[nH]c(=O)n3C)n2CCc2ccccc2)n1	-3	6.6	2009	-2	-19	·	·
Cc1ccc(O)c(C2=NCCNC(C(F)(F)C(F)F)=C2)c1	-14	3.7	23315*	-8	-8	15	7
Cc1ccc(N(C(C)C(=O)O)S(=O)(=O)c2c(C)[nH]c(=O)[nH]c2=O)cc1 (configuration not stated)	-7	0.3	6307	3	-8	·	·
CCCCn1c(O)c(C(=O)/C=C/c2ccc3c(c2)OCO3)c(=O)[nH]c1=O	·	·	3423	4	-27	·	·
COC(=O)c1sccc1S(=O)(=O)Nc1ccc(Cl)cc1	10	1.9	6148	0	-13	11	-5
CCCCc1ccc(C(=O)NC(C(=O)O)C(C)C)cc1 (configuration not stated)	6	2.1	8775	-3	-5	2	3
S=C(Nc1cccc2ccccc12)NC1CCCCC1	-3	-1.6	4780	-2	-15	-14	-2
COCC(C)Nc1ccc(S(=O)(=O)N2CCCC2)cc1[N+](=O)[O-] (configuration not stated)	4	5.1	4250	5	-2	6	8
COC(=O)c1ccc(C(=O)OC)c(NC(=S)N2CCCCC2)c1	10	3.4	5237	-2	-17	7	4
CCN1C(=O)C2C(c3ccc(-c4ccc(F)cc4)c(OC)c3)N3CCCC[C@@]3(C(=O)OC)C2C1=O (some centres not stated)	9&6	24&-1.5	·	·	·	2&0	-4&3
O=C(CN1CCN(C2CCCCC2)CC1)Nc1ccccc1N1CCCCC1	-11	-1.0	10133	-8	-11	-1	8
Cc1nn(-c2ccccc2)c(C)c1C(=O)OCC(N)=O	10	7.0	4497	-4	-24	4	9
Cc1ccc(-c2csc(NCCn3c(C)nc4cc(C(F)(F)F)ccc43)n2)cc1	-5	-7.3	3721	·	-31	2	5
CC(C)c1ccccc1OCC(=O)NN1C(=O)c2ccccc2C1=O	-6	2.7	2174	-4	-27	7	0
O=C(Nc1nc(-c2ccc(-c3ccccc3)cc2)cs1)C1=COCCO1	-6	2.2	1912	14	-35	0	-1
COc1ccc(N/C=C(\[N+](=O)[O-])S(=O)(=O)c2ccccc2)cc1	16	1.8	3944	-5	-21	1	-11
CC(C)OC(=O)CSc1nc(C(C)C)nc2ccccc12	22	3.5	4989	4	-17	0	11
CSc1nc(Cl)cc(Nc2ccc(O)cc2)n1	7	1.7	4202	-2	-31	12	3
Cc1sc2ncn(CC(=O)NCC(=O)N(C)Cc3ccccc3)c(=O)c2c1C	-2	2.4	22315*	-20	-1	1	5
Nc1cc(=O)[nH]c(SCc2cccc(Cl)c2)n1	-14	-18	2596	·	-7	22	-26
COc1ccc(NC(C)=O)cc1CNC(=O)COc1ccccc1C(=O)Nc1cccc(C)c1C	8	8.2	3670	-4	-21	-1	6
CCOC(=O)c1sc(NC(=O)C2CC(=O)N(c3ccc(C)cc3)C2)nc1C (configuration not stated)	2	1.4	3139	-9	-22	-9	-17
CCOc1ccc(NC(=O)CN2CCN(c3ccc(F)cc3)CC2)cc1	7	2.1	3545	-10	3	6	6
Cc1c(C)n(Cc2ccccc2)c2ncnc(Cl)c12	0	-2.9	4181	10	-6	1	4
Cc1sc2ncn(CC(=O)NCCCC(=O)N3CCN(c4ncccn4)CC3)c(=O)c2c1C	-1	3.3	4594	-2	-22	-9	1

Look-ups from the entries so far.
Bead autofluor with COc1ccc(N/C=C(\[N+](=O)[O-])S(=O)(=O)c2ccccc2)cc1 reads 3944
Mtb hypoxia rep with CC(C)OC(=O)CSc1nc(C(C)C)nc2ccccc12 reads 0

Next part.
SMILES	Sa ugtP lethal	RN4220 kill	Bead autofluor	BJeLR lethal	PrP 5UTR inh	Mtb hypoxia rep	Mtb hypoxia rep growth
CN(CC(=O)NC(=O)NCc1ccccc1)CC(=O)Nc1ccc(Cl)c(C(F)(F)F)c1	-23	-3.0	6521	6	-20	7	0
C=CCn1c(SCc2c(C)noc2C)nc2sc3c(c2c1=O)CCCC3	73	2.4	10261	-29	-9	2	1
CSc1ccccc1NC(=S)N/N=C/c1cccn1Cc1cccc(C)c1	·	·	3790	21	-15	·	·
CCCNC(=O)C1CCN(c2ccc(S(=O)(=O)N3CCOCC3)cc2Cl)CC1	5	5.5	9652	-2	-9	9	8
CCOC(=O)c1sc2nc(C)[nH]c(=S)c2c1C	2	4.9	4361	-2	-12	3	10
CC(=O)Nc1ccc(C2=CC(=O)CC(C)(C)C2)cc1	-1	7.8	3960	·	-11	9	6
CCCCOc1ccc(CC2C(=O)N(C)C(=O)N(C)C2=O)cc1	-1	-1.2	12651	5	-19	-2	-5
CCOC(=O)c1c(NC(=O)C2(C)Cc3ccccc3C(=O)O2)sc2c1CCCC2 (configuration not stated)	5	0.7	2381	16	-19	4	-1
O=C(NCc1ccccc1)NC1(C(=O)Nc2ccc3c(c2)OCCO3)CCCCC1	-3	6.9	22030*	5	-1	0	7
Cc1ccc(C(=O)Oc2ccccc2N2CCOCC2)cc1	13	4.7	5582	-5	-14	5	18
FC(F)Oc1ccc(/C=N/n2c(Cc3ccc(Br)cc3)n[nH]c2=S)cc1	·	·	2835	-8	-9	·	·
Cc1ccc(-c2noc(CSc3nnc(Cc4cccs4)n3-c3ccccc3)n2)cc1	4	5.6	6099	3	-14	3	12
CC(=O)Oc1ccc(/C=C2\C=C(c3ccc(C)cc3)OC2=O)cc1	-18	-4.9	3102	12	-11	1	4
O=C(Cc1c(C(=O)O)[nH]c2ccc(Cl)cc12)Nc1ccc2c(c1)OCCO2	8	2.0	2406	3	-9	·	·
O=C(CSc1n[nH]c(-c2ccccc2)n1)N1CCOCC1	0	3.1	3983	-3	-34	-5	-5
O=S(=O)(c1ccc(F)cc1)N1CCN(S(=O)(=O)c2cc(F)ccc2F)CC1	9	3.3	3361	2	-12	4	4
O=C(Cc1ccccc1)c1c[nH]c(C(=O)O)c1	8	7.0	4476	·	-22	13	2
Nc1nc(-c2cccnc2)nn1C(=O)c1ccc(Cl)cc1	13	1.9	4125	3	-14	0	-9
CCCNC(=O)c1ccccc1NC(=O)C1COc2ccccc2O1 (configuration not stated)	4	-2.6	3323	-2	-8	13	14
CCC(C)Sc1nc2c(c(=O)[nH]c(=O)n2C)n1CC(O)COc1cccc2ccccc12 (configuration not stated)	-4	-3.8	5821	1	-12	·	·
C=C1CCN([C@@H](CC(C)C)C(=O)N2CCCC2)S(=O)(=O)c2ccccc21	·	·	4277	-1	-9	·	·
CCC1SC(=NC(=O)c2ccc(Cl)c(Cl)c2)NC1=O (configuration not stated)	-6	-2.8	11199	4	-12	-5	-1
Cc1csc(N2CCc3ccccc32)n1	7	10	8229	-4	-39	14	17
CCC(CC)C(=O)c1c[nH]c(C(=O)N2CCN(c3ccccc3)CC2)c1	-14	-2.1	4175	-5	-39	-7	9
COc1ccc(C(=O)Nc2ccnn2C2CCN(C(=O)c3cnsn3)CC2)cc1	-2	-0.3	5907	2	-21	-2	0
Cc1ccc2[nH]c(O)c(N=NC(=O)C3CC3c3ccccc3)c2c1Br (configuration not stated)	·	·	2108	-4	-6	·	·
Cc1ccc(C2C(C#N)=C(N)N(c3ncn[nH]3)C3=C2C(=O)CC(C)(C)C3)cc1 (configuration not stated)	3	4.4	3318	-7	-9	5	-2
Cc1cccc(OCC(=O)NCCCNC(=O)c2ccccn2)c1	4	2.7	3433	4	-10	11	8
COc1ccc(NC(=O)CN(C)C(=O)CCNC(=O)c2ccccc2OC)cc1	8	2.3	5520	-4	4	5	-7
CCOC(=O)C1(Cc2cccc(OC)c2)CCCN(C(=O)c2cc(C)[nH]n2)C1 (configuration not stated)	2	2.0	?	3	-52	4	3
C[C@@]12CCC=CC1C(c1ccc3ccccc3c1C=Cc1ccccc1)N(Cc1ccccc1)C2=O (some centres not stated)	-7	-14	·	·	·	6	9
Cc1cc(OCC(=O)NNC(=O)c2ccncc2)ccc1C(C)C	3	4.8	5328	5	-4	·	·
COc1ccccc1C(=O)NCCC(=O)N(C)CC(=O)Nc1ccc(N2CCOCC2)cc1	3	5.9	?	1	-6	6	2
Cc1ccccc1N(C(=O)c1snc(C(N)=O)c1N)C(C)C(=O)NC1CCCCC1 (configuration not stated)	·	·	3472	-7	-10	·	·
CCOC(=O)c1sc(NC(=O)c2cccc(S(=O)(=O)N(CC)CC)c2)cc1C	6	5.1	5342	13	-8	-1	7
Cc1cc(Nc2cccc(F)c2)nc(N2CCOCC2)n1	2	5.7	3819	1	3	-2	7

Four compounds already listed, arranged by number of heavy atoms, high to low.
SMILES	Sa ugtP lethal	RN4220 kill	Bead autofluor	BJeLR lethal	PrP 5UTR inh	Mtb hypoxia rep	Mtb hypoxia rep growth
COc1ccc(C(=O)Nc2ccnn2C2CCN(C(=O)c3cnsn3)CC2)cc1	-2	-0.3	5907	2	-21	-2	0
CCOC(=O)C1(Cc2cccc(OC)c2)CCCN(C(=O)c2cc(C)[nH]n2)C1 (configuration not stated)	2	2.0	?	3	-52	4	3
Cc1cc(OCC(=O)NNC(=O)c2ccncc2)ccc1C(C)C	3	4.8	5328	5	-4	·	·
Cc1cc(Nc2cccc(F)c2)nc(N2CCOCC2)n1	2	5.7	3819	1	3	-2	7

(cont.)
SMILES	Sa ugtP lethal	RN4220 kill	Bead autofluor	BJeLR lethal	PrP 5UTR inh	Mtb hypoxia rep	Mtb hypoxia rep growth
CC(Sc1n[nH]c(N)n1)C(=O)C12CC3CC(CC(C3)C1)C2 (configuration not stated)	0	7.6	3513	-6	-10	10	6
COc1cc(OC)c(C2Nc3cccc4cccc(c34)N2)c(OC)c1	-11	-2.5	3885	-3	-16	3	-4
COc1ccccc1C1CCN(Cc2ccccc2)CC1	13	-2.1	4044	3	-25	0	2
COc1ccc(-n2c(SCC(=O)Nc3cc(C)on3)nc3ccc(O)cc3c2=O)cc1OC	6	2.1	4096	-6	-7	2	1
O=c1ccc(/C=C/c2ccccc2)nn1Cc1ccccc1Cl	35	-3.2	2788	5	-13	·	·
CCN(CC(=O)Nc1c(F)cccc1F)C(=O)c1cccc(S(=O)(=O)NCc2ccccc2)c1	10	5.7	4508	6	-9	3	-3
COc1ccc(C(=O)NCc2nnc(SCC(=O)Nc3nnc(C)s3)o2)cc1	2	-7.1	4445	-3	-10	10	10
CCOC(=O)C1(CCOc2ccccc2)CCN(Cc2ccc(C)s2)CC1	-6	1.1	3537	1	-12	5	-2
CN(C)CC1(C)Cc2ccsc2C1O (configuration not stated)	3	1.3	3733	·	-14	6	5
CCN(CC)C(=O)COc1cccc2ccccc12	-2	2.0	5805	-2	-1	0	7
Cc1ccccc1C1=NCC(=O)N(CC(=O)N2CCCCC2)c2sc(C)c(C)c21	-3	2.5	22255*	-3	3	5	4
Cc1ccc2c(c1)N(CCC(=O)NCC1COc3ccccc3O1)C(=O)CO2 (configuration not stated)	7	8.1	21396*	-3	-13	6	5
CCCCCCCSc1nnc(N)s1	11	3.8	3724	-6	-12	8	4
